Compound activity as filed in PubChem.
Ba CapD inh: Bacillus anthracis CapD inhibitors, primary screen, biochemical, fluorescence intensity. CapD gamma-glutamyltranspeptidase (Bacillus anthracis Ames Ancestor). z-score (test concentration not listed). AID 492967, 2010. 0.23% of 140,000 active. purified CapD enzyme, fluorescence intensity read-out; active compounds read low; some hits fall short of the stated cut;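 active = z-score under -4 in either of two replicates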;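 note: stock transfer was 100 nL into about 40 µL; score is relative to mean and spread of the plate; one replicate is shown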
AID504770: growth inhibition of E. coli YBA685, primary screen, V. cholerae RctB inhibitors; E. coli YBA685 rctB-dependent plasmid, OD600 growth, 3 h; active compounds read low; z-score (no concentration beside the values); 0.27% of 130,000 active; AID 504770, 2011;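 active = z-score under -2 on both plates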;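 note: wells of about 30 µL received 100 nL stock; score is relative to mean and SD of the test wells; the first replicate is given; strong numbers were not always called active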
* hit, by the source's call; nt = no result given; & = joins results of further samples.

smiles	Ba CapD inh	AID504770
CC(=O)N(c1ccc(Br)cc1)C1C=CS(=O)(=O)C1 (centres undefined)	0.25	-0.15
O=S(=O)(Nc1ccccc1)N1CCCCC1	-0.84	-0.75
O=C1c2ccccc2C(=O)N1CC(O)Cn1nnc2ccccc21 (centres undefined)	-0.29	-0.05
COc1nc(N(C)C)nc(N(C)C)n1	-0.33	2.2
COC(=O)c1nnn(CC(=O)N(c2ccccc2)c2ccccc2)c1C(=O)OC	0.015	0.45
O=C1c2ccccc2C(Nc2ccc(S(=O)(=O)N3CCCCC3)cc2)N1Cc1ccco1 (centres undefined)	-0.49	-0.3
CCN(CC)c1nc(C)nc2sc(C(=O)Nc3ccc4c(c3)OCO4)c(C)c12	-0.84	nt
CC1(C)OC2OC(C(=O)Nc3ccc(F)c(Cl)c3)C3OC(C)(C)OC3C2O1 (centres undefined)	-0.37	nt
CC(NC(=O)c1ccco1)c1ccccc1 (centres undefined)	nt	-0.95
CC(C(=O)O)n1nc2ccccc2n1 (centres undefined)	nt	-0.8
CN(C(=O)/C=C/C(=O)O)c1ccccc1	nt	0
CCCC(=O)Nc1nnc(SCC(=O)Nc2cc(C(F)(F)F)ccc2Cl)s1	0.06	-1.2
O=C(O)CSC(=S)Nc1cccnc1	0.37	-1.7
CN(C)S(=O)(=O)c1ccc(C(=O)COC(=O)c2ccccc2NCc2ccco2)cc1	nt	0.55
O=C(O)c1cc(-c2ccccc2)nc2ccccc12	1.9	-0.65
C=CCCN1C(=O)c2ccccc2C1=O	-0.88	nt
CN(C)S(=O)(=O)c1ccc(=O)[nH]c1	nt	-0.8
O=S(=O)(c1cccs1)N1CC=C(c2ccccc2)CC1	0.2	1.7
CCN(C(C)=O)c1nnc(CSc2nc3ccccc3s2)s1	0.005	1.8
COc1ccc(C(N)C2CC2)cc1 (centres undefined)	nt	1.3
CN1CCN(C(=O)c2nc(SCc3ccc(F)cc3)ncc2Cl)CC1	-0.77	0.25
O=C(NCCCN1CCCCC1)c1ccc2c(c1)NC(=O)c1ccccc1S2	-0.8	-0.3
CS(=O)(=O)c1ccc(CCC(=O)O)cc1	0.3	nt
O/N=C1/Cc2ccccc2OC1c1ccc(F)cc1 (centres undefined)	-0.45	-0.65
CNC(=S)NCCc1ccccc1	0.21	-0.95
CC(C)(C)c1ccc(NC(=O)c2ccc(N3C(=O)CSCC3=O)cc2)cc1	1.4	-0.25
Cc1cc(OC(=O)c2c(-c3ccccc3)noc2C)n(-c2ccccc2)n1	0.53	nt
COc1cccc(C2CC(c3cccs3)=NN2C(=O)CSc2nnc(CNC(=O)c3cccc(C)c3)n2C)c1OC (centres undefined)	13	nt
COC(=O)c1ccc(-n2c(C)cc(C(=O)CSc3nnc4sc5ccccc5n34)c2C)cc1	-0.53	nt
COc1ccc(NC(=O)c2cc3c(C(F)(F)F)nn(C)c3s2)cc1	-0.7	nt
Cc1cc(C(=O)N2CCN(C(c3ccccc3)c3ccccc3)CC2)no1	0.21	0.3
CN1C(=O)C(CC(=O)Nc2ccc(F)cc2)N(Cc2ccccc2)C1=S (centres undefined)	3.5	-0.5
COC(=O)c1c(NC(=O)c2ccc(S(=O)(=O)N3CCCCC3C)cc2)sc2c1CCN(C)C2 (centres undefined)	-0.72	0.45
COc1cccc(-c2cc(C(F)(F)F)n3ncc(C(=O)NN4CCN(C)CC4)c3n2)c1	nt	0.9
COc1cc(C(=O)Oc2ccccc2/C=C2\Sc3ccccc3C2=O)cc(OC)c1OC	-0.38	nt
O=C(Nc1c(C(=O)N2CCCCCC2)oc2ccccc12)c1ccccc1	1	-1.1
COc1ccc(NC(=O)/C(C#N)=N/Nc2cc(C(=O)O)ccc2C)cc1	nt	-0.05
O=C(Nc1cccc2c1C(=O)NC2=O)c1ccc(Oc2ccccc2)cc1	13	-0.25
CC1CC(Nc2ccccc2)c2ccccc2N1C(=O)c1ccc(Cl)c(Cl)c1 (centres undefined)	0.43	nt
COc1ccccc1-n1cnnc1SCC(=O)NC1CCCCC1C (centres undefined)	nt	-0.2
O=C(CSc1nnc2sc3ccccc3n12)Nc1ccc(F)cc1	-0.29	nt
Cc1cc(C)c2c(=O)[nH]n(C3CCCC3)c2n1	1.5	-0.4
CC(=O)NCCC(=O)N1CCCSC1=Nc1c(C)cccc1C	nt	0.05
Cc1ccc2c(c1)-c1c(ssc1=S)C(C)(C)N2C	0.61	nt
O=C(Cn1ncc2c1-c1ccccc1OC2)NCCN1CCOCC1	-0.32	-0.4
NS(=O)(=O)c1cccc(C(=O)O)c1	nt	-0.55
O=c1cc(C(F)(F)F)nc(N2CCSCC2)[nH]1	-0.23	-1.3
O=C(c1ccco1)N1CCC(c2nc(-c3ccncc3)no2)CC1	-0.37	nt
C(=N\N1CCN(Cc2cccc3ccccc23)CC1)/c1ccco1	-0.57	-0.6
CCN(CC)c1ccc(Nc2ncnc3ccccc23)cc1	-3.1	-0.55

The list continues:
smiles	Ba CapD inh	AID504770
Cc1noc(C)c1CCC(=O)NC1=NCCS1	nt	-0.3
CCNC(=O)/C(C#N)=C/c1ccc(OC(F)F)cc1	nt	0.5
COC(OC)C1Nc2ccccc2C(=O)N1c1cccc(C(F)(F)F)c1 (centres undefined)	17	-0.4
N#CC(C(=O)CN1C(=O)S/C(=C\c2cccs2)C1=O)c1ccccn1 (centres undefined)	nt	-0.7
C#CCOC(=O)Nc1ccc(=O)n(Cc2c(Cl)cccc2Cl)c1	38	nt
Cc1nc2c(C)nn(-c3ccccc3)c2s1	0.1	0.9
O=C(NCCc1c[nH]c2ccccc12)c1ccc(COc2ccc(F)cc2)o1	nt	-0.3
CC(C)(C)c1ccc(-c2cc(C3CCNCC3)[nH]n2)cc1	0.03	-0.3
O=C(CC(NCCc1cc2ccccc2[nH]1)C(=O)O)c1ccc(Br)cc1 (centres undefined)	-0.24	-1.1
CC(=Nc1ccccc1Cl)c1sc2ccccc2c1O	-0.27	nt
CC(=O)N/N=C(\C)c1ccc2ccccc2c1OC(F)F	nt	-0.3
O=c1c2c(nc3n1CC(c1ccccc1)S3)-c1ccccc1CC21CCCC1 (centres undefined)	-0.36	nt
Nc1nnc(-c2ccc3nsnc3c2)o1	-0.48	-0.25
Oc1ccc(Cl)cc1C1=Nc2ccccc2N=C(c2ccc(Cl)cc2)C1	1.1	nt
Fc1cccc(F)c1CN1CC=CCC1	0.8	0.8
CN1C(=O)NC(=O)/C(=C/c2ccco2)C1=O	0.035	-0.65
CCn1c(O)c(C=N/C(=N/O)c2ccc(NC(=O)C3CC3)cc2)c(=O)n(CC)c1=S	nt	-0.15
CN1C(=O)C(=C2C=C(c3ccccc3)OC3=C2CCCC3)C(=O)N(C)C1=O	nt	-0.4
COc1ccc(C2NCCc3c2[nH]c2ccc(OC)cc32)cc1 (centres undefined)	-0.13	-1.1
Cc1ccc(-c2csc(CS(=O)(=O)C(C)(C)C)n2)c(C)c1	-0.45	0.8
Cc1ccc(CN(Cc2ccco2)C(=O)c2ccccc2)cc1	0.1	-0.7
COc1ccccc1CNC(=O)OCCC1=CCC2CC1C2(C)C (centres undefined)	-0.45	nt
CCC(C)(C(=O)NC1CCCCC1)N(Cc1cccs1)C(=O)Cc1cccs1 (centres undefined)	-0.58	1.5
CC(C)NC(=O)c1ccc2c(=O)n3c(nc2c1)CCCCC3	0.28	0.45
C(=N\c1nc2ccccc2n1Cc1ccccc1)/c1ccc2c(c1)OCO2	nt	-1.1
Cc1cc(C)nc(SCc2nnc(SCC(=O)NCc3ccccc3)o2)n1	-0.41	-0.45
COc1ccccc1N1C(=O)C2CCC(C)(C1=O)C2(C)C (centres undefined)	0.13	nt
CC(C)c1c(O)nc(SCCC(=O)O)[nH]c1=O	nt	-2.2
COC(=O)c1sccc1N1C(=O)Cn2cccc2C1C(=O)NC1CCC(C)CC1 (centres undefined)	nt	1.2
COc1cscc1C(=O)NNC(=O)OCCN1CCN(Cc2cc3ccccc3o2)CC1	-0.25	nt
O=C(O)c1ccc(N2CCCCS2(=O)=O)cc1	nt	-0.35
O=C1Nc2ccccc2/C1=C/C=C/c1ccco1	0.12	0.2
CCCCn1c(SCc2cc(=O)n3cc(Cl)ccc3n2)nc2ccc(N3CCOCC3)cc2c1=O	0.45	-0.8
CCOC(=O)CCCCCOC(=O)N1CCN(c2ccc(C(F)(F)F)cn2)CC1	1.2	nt
O=C(NCCCn1ccnc1)c1nn2c(C(F)(F)F)cc(-c3ccco3)nc2c1Cl	-2	nt
O=P(OCC(F)(F)F)(N1CCCCC1)N1CCCCC1	nt	0.8
Cc1nc(C)c(-c2ccn(C(=O)c3ccc(C(F)(F)F)cc3)n2)o1	-0.34	2
COc1ccc(OC)c(-c2[nH]nc3c2C2(C(=O)Nc4ccc(C)c(Br)c42)C(C#N)=C(N)O3)c1 (centres undefined)	-0.085	nt
CC(C)(C)c1ccc(NC(=S)NCCC(=O)O)cc1	-0.47	nt
CC1CN(C)C(c2ccccc2)C(C)C12NC(=O)NC2=O (centres undefined)	0.61	0.4
O=C1/C(=C/c2ccc(-c3cc(Cl)ccc3Cl)o2)C=C(c2ccccc2)N1c1ccccc1Br	0.22	nt
CC1CC(C)CN(C(=O)C2c3ccccc3Oc3ccccc32)C1 (centres undefined)	-0.06	-0.45
CCN(CC(=O)Nc1cc(C)on1)CC(=O)NC1CCS(=O)(=O)C1 (centres undefined)	nt	2.1
CCOC(=O)c1ccc(NC2=CC(=O)CC(c3ccco3)C2)cc1 (centres undefined)	-0.29	2
Cc1ccc(S(=O)(=O)N2CCN(CCNC(=O)C(=O)NCc3ccccc3)CC2)cc1	0.07	nt
CCOc1ccc(/C=N/N2C(=O)NC(C)(CC)C2=O)c(O)c1 (centres undefined)	nt	-0.25
O=C(c1ccc(Cl)cc1Cl)n1cc2c(n1)CCOC2	-0.81	-0.9
O=C(NCc1ccc2c(c1)OCO2)c1cc2ccccc2o1	-0.24	-0.5
N#CC1=C(N)Oc2n[nH]c(-c3ccccc3)c2C1c1ccoc1 (centres undefined)	-0.56&0.42	1.4&0.3
O=C(Nc1ccc(Nc2ccccc2)cc1)c1cc(=O)c2ccccc2o1	-0.63	0.5

Further results follow.
smiles	Ba CapD inh	AID504770
COC(=O)c1c(-c2c(Cl)cccc2Cl)noc1NC(=O)NN1CCCCC1	-0.49	nt
CCn1c(SCC(=O)NC(=O)c2cccn2C)nnc1-c1cccs1	nt	2.3
O=C(NCc1ccccc1)c1ccc[n+]([O-])c1	nt	0.95
COc1cc(/C=C2/NC(=S)NC2=O)ccc1OCc1ccc(Cl)cc1Cl	0.77	nt
Cc1cc(C)n2cc(-c3ccc(Cl)cc3)c(C(=O)O)c2n1	-0.4	1.2
COc1ccccc1C(=O)Oc1ccc2c(=O)c(Oc3ccccc3Br)coc2c1	-0.32	nt
CCOC(=O)N/N=C/c1ccc(Cl)c(Cl)c1	0.12	nt
O=C(Cc1csc(-c2ccccc2)n1)N/N=C/c1cn(Cc2ccccc2)c2ccccc12	0.61	nt
CC(C)(C)Nc1nc(NCc2cccnc2)nc(N2CCOCC2)n1	0.63	nt
COC(=O)c1c(O)cn(-c2ccc(C)c(C)c2)c1C	0.015	-0.85
CCOc1cc(C2C(C(=O)Nc3ccccc3)=C(C)Nc3ncnn32)ccc1OCc1ccccc1 (centres undefined)	-0.86	nt
O=C1NC(C(F)(F)F)(C(F)(F)F)N=C2SC=CN12	-0.58	-0.35
Cc1nn(Cc2ccccc2)c(Cl)c1C(=O)OCC#N	nt	-0.8
Cc1csc(-c2ccc(Oc3ccc(Cl)cc3)nc2)n1	0.73	0.2
N#CC1CN(Cc2cccs2)CN(Cc2cccs2)C1	0.28	-0.05
COc1cc(N(C)C)ccc1CN1CCCC(COC(=O)N2CCN(c3ccc(C(F)(F)F)cc3)CC2)C1 (centres undefined)	-0.2	nt
CCN1/C(=C/C=C/c2cc[n+](CC)c3ccccc23)C=Cc2ccccc21	0.29	nt
O=C1CSCC(=O)N1c1ccc(Cl)cc1	-0.47	-0.7
CCC(=O)NCC(c1cccs1)N1CCOCC1 (centres undefined)	-1.2	-0.95
O=C(CN1CCN(c2cccc(Cl)c2)CC1)NCCc1ccccc1	-0.075	1.9
COc1cc(OC)nc(-c2ccc(NC(=O)NS(=O)(=O)c3ccc(C)cc3)cc2)n1	42	nt
Cc1ccc2cnn(CC(=O)N3CCc4ccccc4C3)c2c1	-0.39	-1.8

Not a hit list; overall some 0.37% were active at least once.
